Bioassay records as filed in PubChem BioAssay.
Vaccinia stage – Vaccinia orthopox stage-specific inhibition; 89,000 compounds, 0.01% hits; Vaccinia-infected cells, mCherry/Venus stage reporter fluorescence; active compounds read low; some inactives read as strong as hits; AID 1053133; activity change (mCherry), % (concentration not given with the values);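 active = mCherry past -33% and 40 or more points under the early reporter, replicates agreeing; inconclusive = past -33% without that gap or agreement; tested in A549 cells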;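 note: scaled between vehicle wells and reference inhibitor wells; 23 nL library stock went into each well; one replicate is shown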
Vaccinia stage Venus – second read-out of Vaccinia stage, no call of its own (marks repeat the call); activity change (Venus), %; measured here: Venus reporter, other viral stage;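 negative = less Venus signal; first of two replicates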
The depositor's hits bear a star; ? = inconclusive; · = no result given; & = joins results of further samples.

Order of results – Vaccinia stage, Vaccinia stage Venus
> CC(C)NC(=O)N1Cc2cc(C(=O)NCC(F)(F)F)nc(-c3cccc(-c4cc5ccccc5o4)c3)c2[C@H]1CCO
→ ?, ·
> C/C=C/c1ccc([C@@H]2[C@H](CO)N3CCCCN(C(=O)Cc4ccncc4)C[C@@H]23)cc1
→ -1.1, -0.5
> C[C@H]1CN([C@@H](C)CO)S(=O)(=O)c2ccc(C3=CCCC3)cc2O[C@H]1CN(C)S(=O)(=O)c1cn(C)cn1
→ 22.2, 16.9
> N#C[C@@H]1[C@@H](c2ccc(C3=CCCC3)cc2)[C@@H](CO)N1C(=O)Cc1ccncc1
→ -0.9, 11.7
> COCC(=O)N1[C@@H]2CN(C(=O)NC(C)C)c3ccccc3[C@@H]2[C@@H]1CO
→ 10.0, 3.1
> O=C(O)[C@@H]1[C@@H](CO)[C@@H]2Cn3c(ccc(-c4ccccc4F)c3=O)[C@@H]2N1C(=O)c1cnccn1
→ 28.0, 16.2
> O=C(C[C@@H]1C[C@@H]2c3cc(NC(=O)C4CCC4)ccc3O[C@@H]2[C@H](CO)O1)NCc1cccc(F)c1
→ -5.2, -7.1
> C/C=C/c1ccc([C@H]2[C@@H](CO)N(C(=O)NC(C)C)[C@H]2CN(C)C(=O)CC)cc1
→ 5.3, -7.9
> COc1cccc(NC(=O)N2C[C@@H](O)COC[C@H]3O[C@@H](CC(=O)NC4Cc5ccccc5C4)CC[C@@H]32)c1
→ -9.7, -4.3
> C[C@H](CO)N1C[C@H](C)[C@H](CN(C)Cc2ccncc2)Oc2ncc(C#CCC3CCCC3)cc2C1=O
→ 1.6, -12.4
> C[C@H]1CN([C@@H](C)CO)C(=O)CCCn2cc(nn2)CO[C@H]1CN(C)C(=O)Nc1ccc(N2CCCCC2)cc1
→ 8.7, 16.9
> CO[C@@H]1CN(C)C(=O)c2ccc(NC(=O)c3ccc4c(c3)OCO4)cc2OC[C@H](C)NC[C@H]1C
→ 10.3, 7.1
> C[C@@H]1CN([C@@H](C)CO)C(=O)c2cc(NS(=O)(=O)c3ccc(F)cc3)ccc2O[C@H]1CN(C)C(=O)Nc1cccc2ccccc12
→ 22.3, 25.6
> COc1ccc2c3c([nH]c2c1)[C@@H](CO)N(Cc1ccc(F)cc1)CC31CCN(C)CC1
→ ?, ·
> C[C@@H]1CN([C@H](C)CO)C(=O)CCCn2cc(nn2)CO[C@H]1CN(C)C(=O)Oc1ccccc1
→ 4.0&2.9, 9.0&-4.7
> COc1cccc(C#Cc2ccc([C@H]3[C@@H](CO)N4C(=O)CN(S(=O)(=O)c5ccccc5C)C[C@@H]34)cc2)c1
→ -2.0, -17.2
> COc1ccc(-c2ccc([C@H]3[C@H](C#N)N(C(=O)C4CCC4)[C@H]3CO)cc2)cc1
→ -11.3, -9.2
> CCc1nc(N2[C@H](C#N)[C@H](c3ccccc3-c3ccccc3F)[C@H]2CO)sc1C
→ -27.6, -21.2
> C[C@H]1CN([C@@H](C)CO)C(=O)Cc2cc(NC(=O)C3CC3)ccc2O[C@@H]1CN(C)C(=O)Nc1cccc2ccccc12
→ 10.3, 19.1
> C[C@H]1CN([C@@H](C)CO)C(=O)c2c(c3ccccc3n2C)-c2ccccc2CO[C@@H]1CN(C)C(=O)[C@@H](Cc1ccccc1)N(C)C
→ -2.6, 5.9
> Cc1noc(C)c1S(=O)(=O)Nc1cccc2c1O[C@@H](CN(C)Cc1ccc(C(=O)O)cc1)[C@@H](C)CN([C@H](C)CO)C2=O
→ 14.9, 11.7
> CCCNC(=O)C[C@H]1CC[C@H]2[C@@H](COC[C@@H](O)CN2C(=O)c2cccnc2)O1
→ 9.0, 7.1
> C[C@H](CO)N1C[C@H](C)[C@@H](CN(C)S(=O)(=O)c2cn(C)cn2)Oc2c(cccc2N(C)C)C1=O
→ 9.8, 2.8
> C[C@@H]1CN([C@H](C)CO)C(=O)c2cccc(NC(=O)c3ccc(-c4nccs4)cc3)c2O[C@H]1CN(C)C(=O)Nc1cccc2ccccc12
→ 7.3, 0.4
> C[C@@H]1CN([C@@H](C)CO)C(=O)c2cc(NC(=O)Cc3ccccc3)ccc2O[C@@H](C)CCCCO[C@H]1CN(C)C(=O)C1CCCCC1
→ ?, ·
> COCC#Cc1cnc2c(c1)C(=O)N([C@H](C)CO)C[C@@H](C)[C@H](CN(C)C(=O)c1cccnc1)O2
→ 17.5, 10.3
> C/C=C/c1cnc2c(c1)C(=O)N([C@H](C)CO)C[C@H](C)[C@H](CN(C)C(=O)Cc1ccccn1)O2
→ -0.1, 3.0
> C[C@@H]1CN([C@H](C)CO)C(=O)c2cc(NS(=O)(=O)c3ccccc3)ccc2O[C@@H](C)CCCCO[C@H]1CN(C)C(=O)Nc1ccc2c(c1)OCO2
→ 17.6, 6.1
> C[C@H]1CN([C@@H](C)CO)C(=O)Cc2cc(NC(=O)C3CCCCC3)ccc2O[C@H]1CN(C)C(=O)Nc1ccccc1
→ -1.7, -0.4
> CN1C(=O)c2cc(NC(=O)Nc3cccc(Cl)c3)ccc2OC[C@@H]2O[C@@H](CC(=O)O)CC[C@H]21
→ 16.1, 13.3

Next entries follow.
Order of results – Vaccinia stage, Vaccinia stage Venus
> COc1cccc(S(=O)(=O)Nc2ccc3c(c2)[C@H]2C[C@@H](CC(=O)NCc4ccc(Cl)cc4)O[C@H](CO)[C@H]2O3)c1
→ ?, ·
> COc1ccc(C#Cc2cnc3c(c2)C(=O)N([C@H](C)CO)C[C@H](C)[C@H](CN(C)C)O3)cc1
→ -20.8, -17.5
> CC(C)NC(=O)N1Cc2cc(C(=O)NC3Cc4ccccc4C3)nc(-c3cccc(-c4cccnc4)c3)c2[C@H]1CCO
→ ?, ·
> C[C@H]1CN([C@@H](C)CO)S(=O)(=O)c2ccc(C#CC3(O)CCCC3)cc2O[C@@H]1CN(C)C(=O)Nc1ccc(F)cc1
→ -29.7, -28.5
> O=C(NCc1cc(F)cc(F)c1)[C@H]1[C@H](CO)[C@H]2Cn3c(cccc3=O)[C@@H]1N2C(=O)c1cnccn1
→ -3.1, -0.2
> Cc1ccccc1-c1cnc2c(c1)C(=O)N([C@H](C)CO)C[C@H](C)[C@@H](CN(C)Cc1cncnc1)O2
→ -0.4, 2.7
> CO[C@H]1CN(C)C(=O)c2cc(NS(=O)(=O)CC(F)(F)F)ccc2OC[C@@H](C)N(CCC(F)(F)F)C[C@@H]1C
→ 9.5, 3.6
> CCCNC(=O)C[C@@H]1CC[C@H]2[C@@H](COC[C@@H](O)CN2C(=O)c2cccnc2)O1
→ 19.4, 9.9
> C[C@H]1CN([C@@H](C)CO)C(=O)c2cccc(NC(=O)Nc3cccc4ccccc34)c2O[C@@H]1CN(C)S(=O)(=O)c1ccc(Cl)cc1
→ -2.3, -0.5
> O=C(C[C@H]1CC[C@H]2[C@@H](COC[C@@H](O)CN2C(=O)c2ccc3c(c2)OCO3)O1)NCCN1CCCCC1
→ 13.4, 15.3
> COc1ccc(NC(=O)Nc2cccc3c2O[C@H](CN(C)C(=O)Nc2ccc4c(c2)OCO4)[C@@H](C)CN([C@H](C)CO)C3=O)cc1
→ 20.8, 3.3
> Cc1ccc(S(=O)(=O)NCC[C@@H]2CC[C@@H](NC(=O)c3cnccn3)[C@@H](CO)O2)cc1
→ -6.6, -0.3
> O=C(C[C@@H]1CC[C@@H](NS(=O)(=O)c2ccc(F)cc2)[C@H](CO)O1)N1CCc2ccccc2C1
→ -2.1, -3.4
> O=C(NCc1ccc(F)cc1)[C@@H]1[C@@H](CO)[C@@H]2Cn3c(cccc3=O)[C@@H]2N1CC1CC1
→ 8.4, 10.2
> COCC#Cc1ccc2c(c1)O[C@@H](CN(C)C(=O)C1CCC1)[C@@H](C)CN([C@H](C)CO)S2(=O)=O
→ -1.6, 0.1
> Cc1noc(C)c1S(=O)(=O)Nc1cccc2c1O[C@@H](CN(C)C(=O)Nc1ccc3c(c1)OCO3)[C@@H](C)CN([C@@H](C)CO)C2=O
→ 4.4, 2.4
> C[C@H]1CN([C@@H](C)CO)C(=O)c2cc(NS(C)(=O)=O)ccc2O[C@H]1CN(C)CC1CC1
→ 8.9, 3.8
> O=C(c1cccc(F)c1)N1C[C@@H]2[C@H](c3ccccc31)[C@@H](CO)N2C(=O)Cc1ccccc1
→ 5.2, 10.7
> CC(=O)N1[C@@H]2c3ccc(-c4ccccc4F)c(=O)n3C[C@H]1[C@H](CO)[C@H]2C(=O)N1CCOCC1
→ 7.2, 7.9
> COc1ccc(NC(=O)N(C)C[C@H]2Oc3ncc(C#C[C@H](C)O)cc3C(=O)N([C@H](C)CO)C[C@H]2C)cc1
→ 19.2, 5.8
> O=C(CC1CC1)N1CC2(C1)[C@H](c1ccccc1)[C@H](CO)N2C(=O)C1CCOCC1
→ 17.1, 11.7
> C/C=C/c1ccc2c(c1)O[C@H](CN(C)C(=O)c1ccc(F)cc1)[C@H](C)CN([C@@H](C)CO)S2(=O)=O
→ 24.1, 10.8
> CCCC(=O)Nc1ccc2c(c1)OC[C@@H](C)N(C(=O)c1ccccn1)C[C@H](C)[C@H](OC)CN(C)C2=O
→ 5.0, 5.1
> CCCNC(=O)N(C)C[C@@H]1Oc2ncc(C#C[C@H](C)O)cc2C(=O)N([C@H](C)CO)C[C@H]1C
→ 18.8, 22.6
> CCCNC(=O)N1[C@H](C#N)[C@@H](c2ccc(C3=CCCC3)cc2)[C@H]1CO
→ 23.1, 13.9
> C/C=C/c1ccc([C@H]2[C@@H](CO)N(C(=O)CN(C)C)[C@@H]2CNC(=O)CC)cc1
→ -1.0, 3.0
> C[C@H]1CN([C@@H](C)CO)C(=O)c2cc(NC(=O)Nc3ccc(F)cc3)ccc2O[C@@H]1CN(C)C(=O)NC1CCCCC1
→ 4.4, 3.9
> Cc1noc(C)c1S(=O)(=O)Nc1ccc2c(c1)C(=O)N([C@H](C)CO)C[C@@H](C)[C@H](CN(C)C(=O)Nc1ccccc1)O2
→ 1.3, -1.7
> CCC(=O)N1[C@@H]2c3ccc(-c4ccccc4F)c(=O)n3C[C@H]1[C@H](CO)[C@H]2C(=O)NC1CCC1
→ 22.9, 12.1
> COc1cccc(S(=O)(=O)N(C)C[C@@H]2Oc3cc(C4=CCCC4)ccc3S(=O)(=O)N([C@@H](C)CO)C[C@@H]2C)c1
→ -3.8, -0.6

Among those listed so far, these have a CF3 group:
Order of results – Vaccinia stage, Vaccinia stage Venus
> CC(C)NC(=O)N1Cc2cc(C(=O)NCC(F)(F)F)nc(-c3cccc(-c4cc5ccccc5o4)c3)c2[C@H]1CCO
→ ?, ·
> CO[C@H]1CN(C)C(=O)c2cc(NS(=O)(=O)CC(F)(F)F)ccc2OC[C@@H](C)N(CCC(F)(F)F)C[C@@H]1C
→ 9.5, 3.6

The listing picks up, starting two compounds before the break.
Order of results – Vaccinia stage, Vaccinia stage Venus
> CCC(=O)N1[C@@H]2c3ccc(-c4ccccc4F)c(=O)n3C[C@H]1[C@H](CO)[C@H]2C(=O)NC1CCC1
→ 22.9, 12.1
> COc1cccc(S(=O)(=O)N(C)C[C@@H]2Oc3cc(C4=CCCC4)ccc3S(=O)(=O)N([C@@H](C)CO)C[C@@H]2C)c1
→ -3.8, -0.6
> CCCN(C)C[C@H]1OCCCC[C@H](C)Oc2ccc(NS(=O)(=O)c3ccc(C)cc3)cc2C(=O)N([C@H](C)CO)C[C@H]1C
→ -18.5, -22.0
> O=C(NCCN1CCOCC1)[C@@]1(Cc2ccccc2)COC(c2ccc(OCCCO)cc2)=N1
→ 12.8, 12.4
> O=C(C[C@@H]1C=C[C@H](NC(=O)c2cccc(F)c2)[C@@H](CO)O1)NCCN1CCCC1
→ 5.9, 9.6
> COc1ccc(S(=O)(=O)N(C)C[C@H]2Oc3ccc(NS(=O)(=O)c4ccccc4)cc3C(=O)N([C@H](C)CO)C[C@@H]2C)cc1
→ 15.3, 10.3
> CN1c2ccc(Br)cc2[C@@H]2[C@@H](CCN2S(=O)(=O)c2ccccc2)[C@H]1CO
→ -6.0, -4.0
> CO[C@H]1CN(C)C(=O)c2ccc(NC(=O)C3CCCCC3)cc2OC[C@@H](C)N(Cc2cccnc2)C[C@H]1C
→ -3.0, 2.6
> O=C(C1CCCC1)N1CCCCN2[C@H](CO)[C@H](c3ccc(C#CC4(O)CCCC4)cc3)[C@@H]2C1
→ -2.6, 3.1
> CO[C@H]1CC[C@H]2CCOc3ccc(C#N)cc3C(=O)N(C)C[C@@H](OC)[C@@H](C)C(=O)N(C)C[C@H]1O2
→ 3.4, 3.6
> C[C@@H](O)C#Cc1cnc2c(c1)C(=O)N([C@@H](C)CO)C[C@H](C)[C@H](CN(C)C(=O)CC1CC1)O2
→ 3.6, 1.3
> C[C@H](CO)N1C[C@H](C)[C@@H](CN(C)C(=O)Nc2cccc3ccccc23)Oc2c(NS(C)(=O)=O)cccc2C1=O
→ 0.8, 3.9
> CC=Cc1ccc2n(c1=O)C[C@@H]1[C@@H](CO)[C@H](C(=O)N(C)C)N[C@H]21 (mixture of isomers)
→ 4.7, 5.4
> C[C@H]1CN([C@@H](C)CO)C(=O)Cc2cc(NC(=O)NC3CCCCC3)ccc2O[C@H]1CN(C)C(=O)NC1CCCCC1
→ -2.7, 5.0
> CCCC#Cc1ccc([C@H]2[C@@H](CO)N(C(C)=O)[C@@H]2CNC(=O)C2CC2)cc1
→ 0.0, 7.1
> Cc1ccc(S(=O)(=O)N[C@H]2CC[C@@H](CC(=O)N3CCc4ccccc4C3)O[C@@H]2CO)cc1
→ -23.0, -18.1
> Cc1cc(C(=O)Nc2cccc3c2O[C@H](CN(C)Cc2ccncc2)[C@@H](C)CN([C@H](C)CO)C3=O)n(C)n1
→ 20.6, 13.2
> O=C(C1=C[C@@H](c2coc3ccccc3c2=O)C[C@@H](OCc2ccc(CO)cc2)O1)N1CCN(Cc2ccccc2)CC1
→ -16.5, -11.5
> Cc1noc(C)c1NC(=O)N(C)C[C@H]1Oc2ccc(NC(=O)Nc3ccc4c(c3)OCO4)cc2CC(=O)N([C@H](C)CO)C[C@@H]1C
→ 7.5, 11.1

These rows are one share of the data; rates above refer to the full screens.
